HSD17B inh: qHTS Assay for Inhibitors of HSD17B4, hydroxysteroid (17-beta) dehydrogenase 4 | 3-hydroxyacyl-CoA dehydrogenase type-2 (Homo sapiens), Q99714 | recombinant HSD17B10, NADH fluorescence kinetic; many of its hits are not listed in these tables | Potency, µM (series often up to 57.1 µM), without a hit: at the highest dose activity change, negative = inhibition, most hits filed as inhibitors | 75,000 tested, 7.6% active; active = well fitted inhibition curve with a large enough effect; inconclusive = small, poorly fitted or top-dose-only effect; inactive = no such curve, though single readings can be large or run the other way;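 note: the protocol describes HADH2 (HSD17B10) and not the HSD17B4 of the title; nearly all actives have a fitted effect of over 70% in size; most hits overshoot -100% by far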
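Enzyme plus compound, 15 min room temperature; substrate mix added (NAD+ 1 mM, beta-hydroxybutyryl-CoA 90 uM final); plates read kinetically for NADH fluorescence. HADH2 was His-tagged, E. coli-derived, 20 nM.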
Active calls of the source: *; u = inconclusive; [ ] = remark or other dose. % is set by controls: 0 for no effect and ±100 for the full control effect; potency is the fitted concentration of half-maximal effect.

SMILES	HSD17B inh
Nc1nc2n(n1)C(c1ccco1)CC(c1ccc(Cl)cc1)N2 (stereo not drawn)	5%
COC(=O)[C@H](C)NC(=O)NC1CCCc2ccccc21 (stereo partly drawn)	-20%
COc1ccc(C(C)=O)cc1CSc1nnc(C)s1	1%
COc1ccc(N(CC(=O)Nc2ccc(C)cn2)S(=O)(=O)c2c(C)noc2C)cc1	12%
COc1cc(S(=O)(=O)N2CCC(O)(c3cccc(C(F)(F)F)c3)CC2)ccc1-n1cnnn1	3%
CCC(=O)NCCCCNC(=O)CC	-16%
O=C(CSc1nc2ccccc2c2ccccc12)c1ccccc1	-15%[11.4 µM]
O=C(CCC(=O)N1CCN(C2CCCC2)CC1)Nc1nnc(C(F)(F)F)s1	8%
C=C(C)C(=O)OCCCCCCCCCC	6%
CCOc1ccc(-c2nn3c(-c4ccc(F)cc4)nnc3s2)cc1	u
CCCCn1c2c(c(=N)c3c1CCC3)CCC2	7%
COc1ccc(CCC(=O)N2c3ccccc3CC2C)cc1 (stereo not drawn)	-3%
CCOC(=O)C(C(=O)OCC)C1N=C(N)N=C2Oc3ccccc3N21 (stereo not drawn)	u
CCOc1ccccc1C(=O)NC(C(=O)Nc1ccccc1N1CCOCC1)C(C)C (stereo not drawn)	2%
CCOC(=O)COc1cccc2c(=O)n(CC(=O)N3CCN(C(=O)OCC)CC3)ccc12	6%
O=c1c(C/C=C/c2ccccc2)c(O)nc2n1CCCS2	-4%
O=c1c(-c2cc(F)cc(F)c2)nc2cncnc2n1Cc1ccccc1	u
COc1ccc2[nH]c3c(=O)n(CCCCC(=O)N4CCC(C(N)=O)CC4)c(=S)[nH]c3c2c1	u
CSc1ncc(Cl)c(C(=O)Nc2ccc(S(=O)(=O)N3CCOCC3)cc2)n1	4%
CC(C)OC(=O)c1cccc(C(=O)OCc2ccco2)n1	1%
COCCN(CC(=O)Nc1ccc(F)cc1)S(=O)(=O)c1ccc(S(=O)(=O)N2CCCC2)cc1	6%
CC(NC(=O)Nc1ccc2c(c1)OCO2)C1CCCO1 (stereo not drawn)	-7%
Cc1ncc(CSc2nc3ccccc3[nH]2)c(N)n1	12%
Cc1ccc(-c2nnc(CSc3nnc(COc4ccccc4)n3-c3ccccc3)o2)cc1	-11%
Cc1nn(-c2ccc(Cl)cc2)c(N)c1C(O)(CSc1nccn1C)C(F)(F)F (stereo not drawn)	-11%
Remaining list, next part:
SMILES	HSD17B inh
Cc1cccc2cc(CN(CCN3CCCC3)C(=O)NC3CCCCC3)c(=O)[nH]c12	-6%
O=c1c2ccccc2nc(SCc2cccc(F)c2)n1Cc1ccco1	-26%
O=S(=O)(/N=C(/Nc1cc(N2CCOCC2)ncn1)c1ccccc1)c1ccccc1	25µM*
O=C(OCc1nnc(-c2ccccc2)o1)c1cn(-c2ccccc2)nc1-c1ccccc1	25µM*
C=CCn1c(SCc2cc(=O)n3ccsc3n2)nc2sc(C)c(C)c2c1=O	u
O=S(=O)(Nc1ccccc1Cl)c1ccc(F)cc1	6%
Cc1cccc(C2N(c3nccs3)C(=O)C3CCCN32)c1 (stereo not drawn)	0%
CCCc1cc(C(=O)NCCc2ccc(OC)c(OC)c2)no1	9%
O=C(COC(=O)Cc1cn2ccsc2n1)Nc1nc2ccccc2s1	3%
COc1ccc(NC(=O)N2CCCC3(CCNCC3)C2)cc1	4%
O=C(c1cc2nc(-c3ccco3)cc(C(F)(F)F)n2n1)N1CCCc2ccccc21	9%
CN(C)C(CNC(=O)CSc1nnc(-c2ccco2)o1)c1ccccc1 (stereo not drawn)	7%
CSc1ncccc1C(=O)OCC(=O)Nc1cc(C(F)(F)F)ccc1N1CCOCC1	1%
COc1ccc(-c2nn(-c3ccccc3)cc2C(=O)N2CCOCC2)cc1	10%
Cc1ccc(S(=O)(=O)C(C#N)c2nc3ccccc3nc2N2CCCC2)cc1 (stereo not drawn)	32µM*
C=CCn1c(COc2ccccc2F)nnc1SCC(=O)N1CC(=O)Nc2ccccc21	0%
O=C(/C=N/O)Nc1ccccc1	7%
COC(=O)C1CCN(C(c2ccc(OC)c(OC)c2)c2sc3nc(C)nn3c2O)CC1 (stereo not drawn)	8%
COc1cc(OC)c(C2N(c3ccc(Cl)cc3)C(=O)C3CCCN32)cc1OC (stereo not drawn)	11%
c1ncc(-c2ccoc2)c(NC2CC2)n1	-19%
CCSc1nnc(NC(=O)c2cnccn2)s1	-1%
CC1(C)CC2(CCO1)CNC(=O)O2 (stereo not drawn)	-5%
O=C(NC1CCCC1)C1CCC(=O)N1C1CCCC1 (stereo not drawn)	12%
Cn1c(=O)c2[nH]c(CCCCc3nc4ccccc4[nH]3)nc2n(C)c1=O	7%[11.4 µM]
O=C(CC1C(=O)NCCN1C(=O)Nc1ccccc1)Nc1ccc2c(c1)OCO2 (stereo not drawn)	-11%
Following part.
SMILES	HSD17B inh
O=C(O)c1nnsc1-c1csnn1	-4%[11.4 µM]
CC1(C)CC(=O)C=C(NC2CC(C)(C)NC(C)(C)C2)C1	3%
O=C(CN1CCN(c2ccc(F)cc2)CC1)Nc1ccc(F)c(F)c1	-19%
CC1(C)Cc2ccccc2-c2nc3ccccc3c(=O)n21	5%
Cc1ccc(S(=O)(=O)N2CCC(C(=O)OCC(=O)N3CCc4ccccc43)CC2)cc1	-3%
COCCNC(=O)CSc1nc2cc(OC)c(OC)cc2c(=O)n1CCC1=CCCCC1	15%
Cc1cc(C)nc(Nc2n[nH]c(Cc3ccccc3)n2)n1	2%
O=C(NCCN1CCCCCC1)C1CC(=O)N(CCc2ccccc2)C1 (stereo not drawn)	11%
CSc1ncccc1C(=O)OCC(=O)N1CCOCC1	1%
COC(=O)c1cccc(C(=O)Oc2cccc(Br)c2)n1	0%
CCCOc1ccc(N2CC(C(=O)Nc3ncccc3C)CC2=O)cc1 (stereo not drawn)	7%
C=N[C@H](C(=O)N[C@@H]1C(=O)N2[C@@H]1SC(C)(C)[C@@H]2C(=O)O)c1ccccc1	2%[25.6 µM]
COc1ccc(-c2noc(-c3cc(Cl)ccc3Cl)n2)cc1OC	6%
COc1ccccc1Cn1cnc2cccnc21	-11%
CCN1C(=O)c2cccc3c(NC(=O)c4ccc5c(c4)OCCO5)ccc1c23	2%
Cc1ccc(NC(=O)C2CCCN(S(=O)(=O)c3c(C)noc3C)C2)cc1F (stereo not drawn)	8%
Cc1csc(=O)n1CC(=O)OCc1cccc2ccccc12	-2%
Cc1ccc(CC(=O)OCCNC(=O)c2cccnc2)cc1	8%
CCCCc1nc2ccccc2c(=O)n1NC(=O)c1c(O)c2cccc3c2n(c1=O)CCC3	5%
CCOC(=O)CNS(=O)(=O)c1ccc(C(=O)O)cc1	8%
COc1cc(NC(=O)N[C@H](C(=O)O)C(C)C)cc(OC)c1	8%
CCOC(=O)N1CCC(N2Cc3cccc(C(=O)NCc4ccc(OC)cc4)c3C2=O)CC1	-14%
Cc1ccccc1-c1cc(NCc2ccccc2)ncn1	1%
Cc1cccc(N(CC(=O)Nc2ccc(CC#N)cc2)S(C)(=O)=O)c1	4%
Cc1ccc(C)c([N+](=O)[O-])c1	2%

The list goes on; it opens with the 3 that closed the last part.
SMILES	HSD17B inh
Cc1ccccc1-c1cc(NCc2ccccc2)ncn1	1%
Cc1cccc(N(CC(=O)Nc2ccc(CC#N)cc2)S(C)(=O)=O)c1	4%
Cc1ccc(C)c([N+](=O)[O-])c1	2%
c1ccc(-c2nnc(CSc3nncs3)o2)cc1	-10%
Cc1nccn1CCCN1C(=O)OC2(CCCCC2)C1(C)O (stereo not drawn)	17%
CC1=CC(C)(C)Nc2ccc(C)cc21	32µM*
CC1CCCC(NC(=O)CN2CCN(Cc3ccc(Cl)cc3)C2=O)C1C (stereo not drawn)	0%
CCCCCN=c1ccn(Cc2ccccc2)c2ccccc12	-9%
CCn1c(SCC(=O)N2CCCc3ccccc32)nc2cccnc21	-8%
CCCc1nnc(NC(=O)CCC(=O)Nc2ccc(F)cc2)s1	3%
COc1cc(C)cc2c(-c3c(O)cc(O)c4c3C[C@H](C)N[C@@H]4C)cc(-c3cc(-c4c(O)cc(O)c5c4C[C@H](C)N[C@@H]5C)c4cc(C)cc(OC)c4c3O)c(O)c12	-20%[11.4 µM]
COCCSc1nnc(-c2cnccn2)o1	-2%
O=C1c2[nH]nc(-c3ccccc3O)c2C(c2ccc(F)cc2)N1Cc1ccco1 (stereo not drawn)	-6%
Cc1cccc2cccnc12	-2%
Cc1onc(-c2ccccc2Cl)c1C(=O)Nc1ccccc1C(=O)NC(C)C	-4%
Cc1nc2ncnn2c(Nc2ccc3c(c2)OCCO3)c1C	-12%
Cn1c(=O)c2c(n(C)c1=O)=NC1(CCCCC1)ON=2	4%
COCOc1cc(OC)ccc1C(=O)/C=C\c1ccc2c(c1)OCO2	-5%[11.4 µM]
Cc1nnc(Sc2cc(C(=O)NCc3ccco3)c3ccccc3n2)s1	u
COc1ccc(CCN/C=C2/CC(=O)NC2=O)cc1OC	6%
Cc1cc2ncn(C(=O)c3c(-c4c(Cl)cccc4Cl)noc3C)c2cc1C	10%
CCC(C)Nc1nc2c(c(=O)n(C)c(=O)n2C)n1Cc1cccc(C)c1 (stereo not drawn)	1%
COc1ccccc1C(=O)Nc1nc2ccc(S(C)(=O)=O)cc2s1	u
COc1ccc(-n2c(=O)[nH]cc(C(=O)N3CCc4ccccc43)c2=O)cc1	-3%
COc1ccc2cc3cc(C(=O)NCC4COc5ccccc5O4)oc3nc2c1 (stereo not drawn)	16µM*
O=C(O)C1CCCN1C(=O)c1cccs1 (stereo not drawn)	-3%
COc1ccc(-c2cnc(N)n2CC2CCCO2)cc1 (stereo not drawn)	2%
CCCC(=O)Nc1ccc(C(=O)Nc2nnc(COC)s2)cc1	-13%
(continued)
SMILES	HSD17B inh
COc1ccc2[nH]c(C(=O)O)c(NS(=O)(=O)c3ccc(OC)c(OC)c3)c2c1	u
O=C(O)c1cc(=O)[nH]c(=S)[nH]1	6%[11.4 µM]
COc1ccc(-c2nc3cnc(N(C)C)nc3n(-c3ccccc3)c2=O)cc1	u
CC(=O)N1CCc2c(sc(NC(=O)CN3C(=O)CCC3=O)c2C(N)=O)C1	19%
CCOC(=O)c1ccc2c(c1)nc(SC/C(O)=C(\C#N)c1nc3ccccc3[nH]1)n2CC	u
Cc1onc(-c2ccccc2)c1C(=O)Nc1cccnc1	0%
Cc1ccc(N2CC(C(=O)Nc3nccs3)CC2=O)cc1 (stereo not drawn)	12%
Cc1cc(C)nc(-n2nc(C)cc2NC(=O)CN2CCc3ccccc3C2)n1	4%
CN1CCN(c2ncnc3ccc(-c4ccccc4C(F)(F)F)cc23)CC1	2%
COc1ccc(N(C(=O)c2cccc(OC)c2OC)C2C=CS(=O)(=O)C2)cc1 (stereo not drawn)	0%
CCC(C)(C)C	2%
O=C(CSc1nnc(COc2ccc3c(c2)CCCC3)o1)Nc1ccc(F)cc1	-5%
CCCS(=O)(=O)NCc1cn2cccc(C)c2n1	32µM*
Cc1ccc(-c2cc(C(F)F)nc(N3CCC(C)CC3)n2)cc1	32µM*
CCN(CC)S(=O)(=O)c1cccc(C(=O)Nc2ccccc2)c1	3%
Cc1ccc(-c2ccc(=O)n(CC(=O)NCCN3CCCCC3C)n2)cc1 (stereo not drawn)	u
NC(=O)/N=C(\N)NC(=O)c1ccccc1	7%[11.4 µM]
CCOC(=O)c1cccc(NC(=O)CN(C)S(=O)(=O)c2cnc[nH]2)c1	-3%
CCCCCn1c(CNC(C)=O)nc2ccccc21	3%
CCN(CCCn1c(SCC#N)nc2ccccc2c1=O)c1ccccc1	-4%
O=C(C1CCC1)N1CCc2cc(S(=O)(=O)NC3CCCC3)ccc21	13%
CC1CCCC(C)N1C(=O)c1cc(-c2cccs2)on1 (stereo not drawn)	2%
COc1cc(C2C(C(=O)OC(C)C)=C(C)Nc3[nH]c(=O)[nH]c(=O)c32)ccc1O (stereo not drawn)	u
Cc1nc(C)c(-c2ccccc2)c(=O)[nH]1	-1%
Cc1ccc(C)c2[nH]c(=O)c(CN(Cc3ccco3)S(=O)(=O)c3ccc4c(c3)OCCO4)cc12	25µM*

Filtered by structure: the compounds so far with an NH in an aromatic ring
SMILES	HSD17B inh
COc1ccc2[nH]c3c(=O)n(CCCCC(=O)N4CCC(C(N)=O)CC4)c(=S)[nH]c3c2c1	u
Cc1ncc(CSc2nc3ccccc3[nH]2)c(N)n1	12%
Cc1cccc2cc(CN(CCN3CCCC3)C(=O)NC3CCCCC3)c(=O)[nH]c12	-6%
Cn1c(=O)c2[nH]c(CCCCc3nc4ccccc4[nH]3)nc2n(C)c1=O	7%[11.4 µM]
Cc1cc(C)nc(Nc2n[nH]c(Cc3ccccc3)n2)n1	2%
O=C1c2[nH]nc(-c3ccccc3O)c2C(c2ccc(F)cc2)N1Cc1ccco1 (stereo not drawn)	-6%
COc1ccc(-n2c(=O)[nH]cc(C(=O)N3CCc4ccccc43)c2=O)cc1	-3%
COc1ccc2[nH]c(C(=O)O)c(NS(=O)(=O)c3ccc(OC)c(OC)c3)c2c1	u
O=C(O)c1cc(=O)[nH]c(=S)[nH]1	6%[11.4 µM]
CCOC(=O)c1ccc2c(c1)nc(SC/C(O)=C(\C#N)c1nc3ccccc3[nH]1)n2CC	u
CCOC(=O)c1cccc(NC(=O)CN(C)S(=O)(=O)c2cnc[nH]2)c1	-3%
COc1cc(C2C(C(=O)OC(C)C)=C(C)Nc3[nH]c(=O)[nH]c(=O)c32)ccc1O (stereo not drawn)	u
Cc1nc(C)c(-c2ccccc2)c(=O)[nH]1	-1%
Cc1ccc(C)c2[nH]c(=O)c(CN(Cc3ccco3)S(=O)(=O)c3ccc4c(c3)OCCO4)cc12	25µM*

Bioassay records (PubChem BioAssay)

The list is partial (hit frequency here may not be typical).
